# Screening data (PubChem BioAssay)
# Menin-MLL FL inh: inhibitors of human menin-MLL interaction, wild-type MLL peptide; Fluorescence polarization, fluorescein-MLL peptide displacement from menin; FP activity change, % at 61.4 µM; 290,000 tested, under 10 active; AID 1766; inconclusive = falling polarisation curve, or a change in total fluorescence; inactive = total fluorescence flat and polarisation flat or rising; no compound was filed as active; the % refers to the polarisation; negative = inhibition;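 further: % of control where 0% means no effect; inhibitors lower the polarisation; unlabelled MLL peptide was the positive control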
# PINK1 modulator: modulators of PINK1 expression; PINK1 immunofluorescence, high-content cytometry, 24 h; Potency, µM (titrated, usually from 76.6 µM), without a hit: at the highest dose activation (PINK1 increase), usual class: activators; 410,000 tested, 0.2% active; AID 624263; active = well fitted activation curve with a large enough effect; inconclusive = small, poorly fitted or top-dose-only effect; inactive = flat fitted curve, though single readings scatter; cell line not stated here;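 further: potency means the concentration at half of the fitted maximal effect; % of control where 0% means no effect; nearly all actives have a fitted effect of over 65% in size; a mitochondrial uncoupler was the plate control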
#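 Stable cell line, 250 cells/well, 12 h attachment; compounds pinned at 5 concentrations, 24 h; CCCP control. Fixed with nuclear dye, primary antibodies 12 h at 10 degrees C, secondary plus cell stain; laser-scanning cytometer read.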
# Sfp PPTase inh: blocks B. subtilis Sfp PPTase activity; Q9F4F7; Biochemical Sfp PPTase activity, qHTS; Potency, µM, inactives show max response, negative = inhibition, usual class: inhibitors; 310,000 tested, 3.5% active; AID 1490; active means well fitted inhibition curve with a large enough effect; inconclusive means small, poorly fitted or top-dose-only effect, or another doubt; inactive means no such curve, though single readings can be large or run the other way;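 further: the enzyme is Sfp with the accession as filed and its product quenches rhodamine fluorescence; potency means the concentration at half of the fitted maximal effect; 0% = enzyme reaction without inhibitor and -100% = no enzyme wells; top concentration of the series not given in the record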
#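 Sfp 15 nM + cpd, 15 min RT; start w/ rhodamine-CoA 5 uM, BHQ-2-YbbR 12.5 uM (final); 50 mM Hepes pH 7.6, 10 mM MgCl2, 0.01% NP-40, 0.01% BSA; read 525/598 nm at 0 and 30 min.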
# TRPV1 potentiator: human TRPV1 potentiation; AID 540277; 320,000 tested, 0.02% active; TRPV1-expressing cells, Fluo-8 calcium influx, capsaicin EC20 potentiation; host cell line not named in the record; control for the full effect not named in the record; Q8NER1; potentiation, % at 8.33 µM; active means potentiation above 80%; inconclusive means 30% to 80%; inactive means below 30%; further: 0% is about no effect
# Target sequence (Q8NER1 whole entry, looked up): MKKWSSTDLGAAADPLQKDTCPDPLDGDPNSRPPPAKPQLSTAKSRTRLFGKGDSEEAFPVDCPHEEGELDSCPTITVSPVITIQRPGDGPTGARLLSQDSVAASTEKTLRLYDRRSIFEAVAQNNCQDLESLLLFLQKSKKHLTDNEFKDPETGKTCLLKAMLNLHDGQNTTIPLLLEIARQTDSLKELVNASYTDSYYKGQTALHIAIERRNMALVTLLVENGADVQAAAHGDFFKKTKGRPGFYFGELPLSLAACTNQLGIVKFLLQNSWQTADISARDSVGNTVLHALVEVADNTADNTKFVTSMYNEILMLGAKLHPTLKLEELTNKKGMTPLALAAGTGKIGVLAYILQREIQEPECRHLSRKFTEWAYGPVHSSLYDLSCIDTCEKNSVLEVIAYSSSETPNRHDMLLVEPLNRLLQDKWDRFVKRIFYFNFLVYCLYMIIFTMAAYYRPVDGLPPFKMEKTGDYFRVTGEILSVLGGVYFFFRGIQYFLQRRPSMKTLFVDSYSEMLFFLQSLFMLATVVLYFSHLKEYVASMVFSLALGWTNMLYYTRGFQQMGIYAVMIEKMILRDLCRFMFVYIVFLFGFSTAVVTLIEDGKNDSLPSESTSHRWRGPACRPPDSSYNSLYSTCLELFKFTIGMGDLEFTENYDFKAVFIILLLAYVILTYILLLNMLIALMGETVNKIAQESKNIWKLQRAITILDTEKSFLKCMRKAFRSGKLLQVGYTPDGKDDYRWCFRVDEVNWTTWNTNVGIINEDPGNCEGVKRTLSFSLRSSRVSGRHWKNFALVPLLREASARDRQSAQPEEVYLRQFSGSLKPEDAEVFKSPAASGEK
#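 Fluo-8 calcium influx in TRPV1-expressing cells, kinetic read (ex 480/em 520 nm). Compound added and read 3 min for agonist activity, followed by capsaicin at EC20 final and 2 min further read for enhancement.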
# TRPML1 ag: activates the human TRPML1 channel; Q9GZU1; TRPML1-expressing cells, Ca2+ dye fluorescence, FDSS; host cell line not named in the record; reference of the full effect not given here; activation, % (test concentration not listed); 410,000 tested, 0.12% active; AID 624414; in the data active = activation above about 50%; inconclusive = about 30% to 50%; inactive = below about 30%; further: 0% is about no effect; the text of the record puts the active cut at 80%
#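 Agonist activity was taken from a 110 s kinetic Ca2+ dye read on the FDSS after pinning compounds onto TRPML1-DL cells. The cells were seeded at 1,500/well with Tet inducer, incubated about 16 h, then dye-loaded at room temperature.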
# ClpP mod: qHTS Assay for Activators of ClpP; ATP-dependent Clp protease proteolytic subunit (Bacillus subtilis (strain 168)), P80244; purified B. subtilis ClpP, FRET peptide cleavage, 20 min; Potency, µM (titrated, usually from 57.5 µM), without a hit: top-dose activity change, negative = active; 340,000 tested, 1.9% active; AID 651965, 2013; active = well fitted falling curve with a large enough effect; inconclusive = small, poorly fitted or top-dose-only effect; inactive = no such curve, though single readings can be large or run the other way; further: potency means the concentration at half of the fitted maximal effect; the source files actives as falling curves though it sought activators and does not explain the sign; nearly all actives have a fitted effect of over 65% in size; many hits overshoot -100%
# Target sequence (P80244 whole entry, looked up): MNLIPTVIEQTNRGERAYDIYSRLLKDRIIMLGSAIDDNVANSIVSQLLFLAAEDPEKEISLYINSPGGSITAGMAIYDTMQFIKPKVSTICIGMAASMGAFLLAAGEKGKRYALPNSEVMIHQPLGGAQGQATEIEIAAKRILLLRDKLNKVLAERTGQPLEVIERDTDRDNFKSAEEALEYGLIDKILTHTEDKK
#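 ClpP 10 microg/mL final, pH 8 Tris/KCl buffer with BSA, glycerol, Tween-20; compound pinned in; FRET-FV substrate; RT 20 min; Ex320/Em430; ΔFRET vs ADEP 5.8 microM, DMSO, no enzyme.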
# TRPML1 blocker: inhibitors of human TRPML1 channel. TRPML1-inducible cells, Ca2+ dye fluorescence, FDSS; stronger effect = lower value; inhibition of EC80 agonist-evoked calcium signal. 390,000 tested, 0.02% active. activity change, negative = inhibition, % (concentration not given with the values). Q9GZU1. AID 624415; in the data active means activity change below about -50%; inconclusive means about -30% to -50%; inactive means above about -30%;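 further: stimulus is agonist 54-4 at its EC80 concentration; on the % scale 0 is the no-effect control and ±100 the full control effect; compound concentration not given in the record; the text of the record puts the active cut at -80%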
#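 Calcium fluorescence in TRPML1-DL cells induced overnight with Tet: a 110 s read after compound pin addition, then a 110 s antagonist read after challenge with 54-4 at 4 uM final (EC80).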
# The depositor's hits bear a star; ? = inconclusive; · = not tested or not shown; [ ] = another dose, or the depositor's remark.
SMILES,Menin-MLL FL inh,PINK1 modulator,Sfp PPTase inh,TRPV1 potentiator,TRPML1 ag,ClpP mod,TRPML1 blocker
O=C(CCCC(=O)N1CCCc2ccccc21)N1CCCc2ccccc21,-0.5,-2.2%,1.7%,·,1.9,0.0%,2.7
CC1=C(C(=O)OCc2ccccc2)C(c2ccccc2Br)NC(=O)N1 (configuration not stated),3.7,-1.3%,-7.4%,7.9,1.3,0.7%,3.2
Cc1cc(Cl)ccc1OCCCC(=O)N1CCCCC1,0.6,10.9%,79.4µM*,-12.8,-0.5,-1.5%,-14.5
CCN(C(=O)CSc1nnc(-c2ccco2)n1Cc1ccccc1)C1CCS(=O)(=O)C1 (configuration not stated),·,-0.8%,·,15.1,0.1,0.2%,7.0
Cc1cccc(-n2ccnc2SCC(=O)Nc2cccc3ccccc23)c1,·,-4.4%,·,·,1.8,?,16.1
COc1nccc(C(F)(F)F)c1C(=O)NC(=O)Nc1c(C)cccc1C,3.7,0.2%,5.7%,?,-0.5,-1.1%,3.4
O=C1CCCC/C1=C/Nc1ccc(S(=O)(=O)Nc2ncccn2)cc1,5.6,-1.8%,?,-12.9,-0.1,?,-12.2
O=c1[nH]cnc2sc3c(c12)CCCCC3,-0.7,-1.7%,22.1%,3.8,-1.0,·,-10.4
COC(=O)CC1C(=O)NCCN1C(=S)NC(=O)C(c1ccccc1)c1ccccc1 (configuration not stated),1.0,0.6%,11.9%,-18.0,-0.4,0.5%,-12.6
CCN1CCc2nc(NC(=O)c3ccccc3)sc2C1,10.9,6.5%,-8.6%,9.0,1.2,-1.6%,-2.3
CCOc1ccc(C(CC(=O)O)NC(=O)c2ccco2)cc1OC (configuration not stated),-1.3,2.1%,3.6%,8.1,-0.8,-1.3%,-0.6
COc1cccc(N2CCN(Cc3nnc(-c4ccc5c(c4)OCO5)o3)CC2)c1,·,2.2%,·,·,0.4,-27.6%,10.3

# Next section; the last two above are carried over.
SMILES,Menin-MLL FL inh,PINK1 modulator,Sfp PPTase inh,TRPV1 potentiator,TRPML1 ag,ClpP mod,TRPML1 blocker
CCOc1ccc(C(CC(=O)O)NC(=O)c2ccco2)cc1OC (configuration not stated),-1.3,2.1%,3.6%,8.1,-0.8,-1.3%,-0.6
COc1cccc(N2CCN(Cc3nnc(-c4ccc5c(c4)OCO5)o3)CC2)c1,·,2.2%,·,·,0.4,-27.6%,10.3
COc1ccc(/C=C/C(=O)NC(=S)NNC(=O)c2cc(OC)c(OC)c(OC)c2)cc1,0.8,0.6%,8.9%,-5.7,-0.9,-3.2%,-1.1
O=C(CSc1nnc(CNc2ccc(Cl)cc2)o1)Nc1nc2c(s1)CCCC2,0.4,11.2%[38.3 µM],12.6%,?,-0.4,1.2%,-4.4
CCOC(=O)C1CCCN(Cc2cn3c(-c4ccc(Br)cc4)nnc3s2)C1 (configuration not stated),·,0.4%,·,·,1.4,-2.5%,-17.4
CCOC(=O)c1csc(NNC=O)n1,7.1,-1.0%,-21.4%,4.0,-0.4,-1.3%,1.6
C/C=C(/C)C(=O)O[C@@H]1[C@H](OC(C)=O)c2c(ccc3ccc(=O)oc23)OC1(C)C,3.0,1.3%,-5.9%,-6.4,1.2,4.5%,-19.2
CN(C)C1=NCCN1CC1CCCCCC1,·,0.2%,·,-3.5,-0.8,-0.8%,-3.2
Cc1cc(C)c(OCC(=O)Nc2ccccc2N2CCOCC2)c(C)c1,4.0,9.1%[38.3 µM],1.3%,7.8,-0.6,-2.0%,-8.8
COc1ccc(NC(=O)CN2CCN(C3CCCCC3)C(=O)C2=O)cc1,·,2.6%,·,·,-0.5,-1.4%,-8.6
CN(CCNC(=O)CN1C(=O)CSc2ccc(S(=O)(=O)N3CCCC3)cc21)Cc1ccccc1,-2.3,-2.5%,17.7%,1.3,0.5,0.5%,15.0
Cc1ccc2c(=O)cc(C(=O)Nc3nc4ccc(Cl)cc4s3)oc2c1,·,3.7%,·,·,1.4,3.0%,9.7
Cc1ccc(C)c(NC(CC(=O)c2ccccc2)C(=O)OCC(=O)c2cccs2)c1 (configuration not stated),-8.3,1.0%,39.8µM*,-6.7,-0.2,0.7%,1.7
CCc1noc(C)c1C(=O)OCC(=O)Nc1cccc(C)c1,·,2.3%,·,1.8,0.1,0.3%,25.9
Cc1cc(C)c2c(=O)cc(C(=O)Nc3sc4c(c3C(=O)NCc3ccccc3)CCCC4)oc2c1,·,0.6%,·,·,0.3,0.6%,27.9
O=C(CCCCCN1C(=O)CCC1=O)Nc1ccc2c(c1)OCO2,2.6,-0.5%,15.4%,?,-0.6,2.9%,-5.2
CCc1sc(C(=O)N2CCN(c3ccc(F)cc3)CC2)cc1C,2.5,2.3%,3.3%,-18.2,-0.1,·,-1.0
Cc1cnc(CNc2cc(-c3ccoc3)ncn2)cn1,?,0.8%,28.2µM*,·,·,·,·
Cc1ccc(NNS(=O)(=O)c2ccc(C)cc2)cc1,1.0,0.9%,39.8µM*,-7.8,0.6,-2.7%,-3.2
O=C(OCc1cc2ccccc2[nH]c1=O)c1ccccc1,0.8,-1.2%,12.8%,11.6,-1.1,-12.2%,2.7
O=c1[nH]c(SCCN2CCOCC2)nc(O)c1-c1ccccc1,1.6,-1.4%,14.0%,2.9,0.8,·,-6.8
Cc1ccc(N=C2NC(=O)/C(=C/c3cn(C)c4ccccc34)S2)cc1C,?,5.2%,-2.0%,18.6,13.5,1.4%,54.9
COCCCn1c(=N)c(S(=O)(=O)c2ccccc2)cc2c(=O)n3cc(C)ccc3nc21,·,-0.1%,·,·,3.6,3.9%,9.2
COc1ccccc1N(CC(=O)Nc1c(C)cccc1C)S(C)(=O)=O,3.3,-4.6%[38.3 µM],8.8%,-3.6,0.4,-0.5%,-14.6
CCOC(=O)C1(Cc2ccccc2)CCN(Cc2cccn2-c2nccs2)CC1,-4.0,14.1%,14.8%,-2.8,2.4,4.47µM*,23.7
Cc1cc(C)c(C#N)c(OCC(=O)Nc2ccccc2)n1,2.5,2.1%,5.3%,?,-0.5,-0.8%,1.4
CN(C)CCn1c2ccccc2c2nc3ccc([N+](=O)[O-])cc3cc21,-0.7,-2.0%,9.8%,-1.2,0.8,·,12.0
Cc1sc2ncnc(NC3CCN(Cc4ccccc4)CC3)c2c1C,·,0.3%,22.5%,-22.3,0.4,·,-13.0
COc1ccc(/C=C/C(=O)Nc2ccc(OC)cc2[N+](=O)[O-])cc1,4.9,44.7µM*,9.7%,-6.3,-0.1,-1.8%,-19.2
CNC(=S)N/N=C/c1ccc2c(c1)OCCO2,4.0,-1.0%,?,2.9,0.5,-4.1%,-2.5
CC(=O)C1=C(O)C(=O)N(Cc2ccccc2)C1c1ccc(F)cc1 (configuration not stated),-0.3,0.7%,24.0%,-1.5,·,-4.6%,·
O=C(O)c1cc(Br)ccc1NN=C1CCCCC1,-1.2,3.3%,22.2%,14.4,0.0,-6.3%,-2.8
Cc1ccc(CN2CCC(CNc3ncnc4onc(-c5ccc(Cl)cc5)c34)CC2)cc1,·,-4.4%,·,·,1.5,0.6%,30.7
COc1ccccc1NC(=O)C1=C(C)Nc2nc(SCc3ccccc3)nn2C1c1ccncc1 (configuration not stated),·,3.2%,·,·,-0.4,-9.8%,2.1
CC(C)C1Oc2ccccc2N(CC(=O)NCCCN2C(C)CCCC2C)C1=O (configuration not stated),3.6,-2.3%[38.3 µM],17.4%,7.0,0.1,0.7%,-10.2
COc1ccc(N2CCN(C(=O)Nc3ccccc3C)CC2)cc1,-0.2,2.3%,9.9%,1.2,0.3,-1.3%,18.1
CC(C)(C)c1ccc(CN2C3=NCCCN3c3ccccc32)cc1,3.0,1.1%,-4.9%,-21.4,3.7,-1.2%,4.7
COC(=O)C1=C(C(=O)OC)N2C=CC=CC2(C)C(C(=O)OC)=C1C(=O)OC (configuration not stated),-0.9,1.4%,-2.4%,-14.5,1.4,2.82µM*,-2.6
CCOC(=O)c1cc2c(=O)n3ccccc3nc2n(CC(C)C)c1=NC(=O)c1ccco1,2.5,3.5%,-26.9%,2.9,-0.5,7.08µM*,-1.4
CCOc1ccc(C(=O)OCC(=O)NCCNC(=O)COC(=O)c2ccc(OCC)cc2)cc1,-0.5,5.9%,2.6%,14.9,-0.3,4.2%,6.6
O=C(Nc1ccc2c(c1)OCO2)c1cc(-c2cccnc2)nc2ccccc12,3.3,-0.1%,16.7%,0.1,-0.4,·,21.1
CN(Cc1ccc(Cl)cc1Cl)C(=O)C1CSC2(C)CCC(=O)N12 (configuration not stated),·,0.2%,·,·,-0.3,0.5%,9.1
COc1ccnc(CSC(N)=Nc2ccccc2C(F)(F)F)c1,0.1,-0.8%,?,26.1,-0.4,0.6%,-9.3
CCOc1cc(C2c3c(-c4ccccc4O)n[nH]c3C(=O)N2Cc2cccnc2)ccc1O (configuration not stated),·,2.8%,·,·,-0.8,0.8%,-12.1
Cc1ccc(S(=O)(=O)N(C)C)cc1NC(=O)COC(=O)C1CCN(S(=O)(=O)c2cccs2)CC1,·,-0.8%,·,-6.8,0.3,·,6.1
Cc1ccc(C(=O)c2cc([N+](=O)[O-])ccc2N2CC(C)OC(C)C2)cc1 (configuration not stated),6.4,11.8%,9.5%,-8.7,-1.0,0.7%,-26.6
O=C(Cn1nnc2ccccc21)c1ccc(Cl)cc1,3.3,-0.5%,-3.3%,-11.8,-0.3,-2.5%,43.8
O=C(Nc1cc(Cl)ccc1O)C1CCCO1 (configuration not stated),0.2,2.0%,5.3%,-18.7,0.0,-1.6%,-7.1
O=C(CCSc1ccccc1)NCCSCc1ccccc1,5.3,-1.1%,-3.6%,4.3,2.5,-1.0%,-11.0
Cc1cccc(Nc2nnc(SCC(=O)c3ccc(O)cc3O)s2)c1,5.8,-0.6%,-6.7%,-12.3,0.5,1.1%,16.0
Cc1ccc(NC(=O)CN(C)C(=O)c2ccc(S(=O)(=O)N(C)c3ccccc3)cc2)cc1,1.0,0.1%,3.9%,0.6,0.6,·,21.2
CC(C)Cc1ccc(CN2C(C)C(=O)N(Cc3cn(Cc4ccco4)nn3)CCS2(=O)=O)cc1 (configuration not stated),·,5.6%,·,·,-0.3,2.5%,1.9
